From PubChem
UUG fidelity – modulators of start codon recognition fidelity in yeast; activity score, % at 18.7 µM; 0.13% of 350,000 active; S. cerevisiae UUG-firefly luciferase reporter, luminescence/redox ratio; AID 602363;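 active means replicate mean at a twofold rise or more, about +100% in these data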;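 further: firefly luciferase made from a UUG start codon reports start codon fidelity; reporter light over untreated wells divided by growth signal over untreated wells; some hits fall short of that in this replicate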
MT1-MMP act inh – blocks activation of human MT1-MMP; P50281; HT1080 RFP-PRO-GFP cells, GFP/RFP ratio fluorescence, overnight; percent of plate control window, DMSO zero; GFP/RFP ratio change, % at 20 µM; 0.061% of 360,000 active;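 active means GFP/RFP ratio change of at least 30% with cell ATP level not reduced by more than half and red fluorescence within 50% of control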; further: strong numbers were not always called active
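Read-out: GFP/RFP fluorescence ratio; Test system: RFP-PRO-GFP reporter HT1080 cells; Compound dosing: single-point 20 µM compound, 1% DMSO; Times: overnight compound exposure at 37 °C.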
HIV Env fusion – HIV envelope-mediated fusion inhibition; inhibition, % at 12.3 µM; HeLa-JRFL Env/CEM21 cell fusion, luciferase; AID 651610; 1.1% of 360,000 active;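 active means mean replicate inhibition score of at least 50 and every replicate individually at or above 50; inconclusive means only one of the two criteria met; inactive means mean below 50 and not all replicates reaching 50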;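 further: 0% = plate neutral controls and 100% = maraviroc near 300 nM; one replicate is shown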
PABP FP inh – blocks human PABP binding to poly(A) RNA; fluorescence polarization; inhibition, % at 35 µM; 1% of 290,000 active;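 active means 50% or more with normal probe brightness, or confirmed in later tests; inconclusive means above 50% with abnormal brightness, or retests that disagree; inactive means below 50% or failed in later tests; about a fifth of its hits are not listed in these tables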;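 further: calls also rest on retests at 20 µM and on dose response follow-up; controls were probe without protein and protein plus probe with vehicle; some compounds called inactive have numbers as strong as hits; many hits fall short of the cut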
CSC inhib – cancer stem cell inhibition | 1.1% of 300,000 active | cancer stem cell-like cells viability, luminescence | inhibition, % at 7.5 µM | AID 2717;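 active means mean at 75% or more and at least half the replicates too; inconclusive means mean and replicates disagree; tested in HMLE shEcad cells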;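 further: 0% = median of negative and 100% = median of positive control wells; the first replicate is given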
eIF4H FP inh – inhibitors of RNA binding by human eIF4H; Q15056; eIF4H fluorescence polarization binding assay; inhibition, % at 35 µM; 0.94% of 290,000 active; AID 2012;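 active means 50% or more with normal probe brightness, or confirmed in later tests; inconclusive means above 50% with abnormal brightness, or retests that disagree; inactive means below 50% or failed in later tests; about a fifth of its hits are not listed in these tables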;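 further: calls also rest on retests at 20 µM and on dose response follow-up; 0% = protein and probe with vehicle and 100% = probe without protein; strong numbers were not always called active; many hits fall short of the cut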
Rce1 inh – blocks yeast Ras-converting enzyme | Q03530 | yeast membranes, quenched prenylated peptide cleavage fluorescence | calls only | 0.27% of 290,000 active;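 active means fall in fluorescence gain of 50% or more versus controls, with final raw signal at or below 3038400; inconclusive means same 50% fall but final raw signal above 3038400; inactive means fall in fluorescence gain under 50%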;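 further: plate controls were neutral control wells for no effect and wells lacking membranes for full effect; tested at 10 µM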
Target sequence (Q03530 whole entry, looked up): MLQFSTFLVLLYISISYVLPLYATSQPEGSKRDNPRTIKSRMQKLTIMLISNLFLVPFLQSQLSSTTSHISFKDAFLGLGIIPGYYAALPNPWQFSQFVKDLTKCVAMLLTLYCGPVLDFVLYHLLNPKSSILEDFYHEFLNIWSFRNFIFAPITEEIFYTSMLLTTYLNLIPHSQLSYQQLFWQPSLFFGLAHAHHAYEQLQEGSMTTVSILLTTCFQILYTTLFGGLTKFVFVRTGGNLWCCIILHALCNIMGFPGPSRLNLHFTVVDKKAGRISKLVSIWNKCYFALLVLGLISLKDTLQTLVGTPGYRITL
MT1-MMP act inh RFP – also measured in MT1-MMP act inh; calls as there; RFP signal change, %; measured here: RFP expression control read;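 0 = vehicle wells; hits needed this value within 50% of zero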
An asterisk follows results filed as active; i = inactive; ? = inconclusive; nt = no result given; + = active, no number; & = joins results of further samples. Compounds were not picked by outcome; overall some 2.9% were active at least once.

1. CCC1(C)Cc2ccccc2-c2nc(NCCCO)n(C)c(=O)c21 (stereo not given)
2. Cc1ccc(C(=O)C[n+]2cc(-c3ccc(C)cc3)n3c2CCCCC3)cc1
3. Cc1nn(C)c(C(=O)N/N=C/c2ccc(Br)cc2)c1Cl
4. OCC1CCN(Cc2cn(Cc3ccccc3)nc2-c2cc3ccccc3o2)CC1
5. CCOC(=O)c1ccccc1NC(=O)CN1C(=O)CCS(=O)(=O)c2ccccc21
6. C/C(CCc1ccc2c(c1)OCO2)=N\N=C1\NC(=O)CC(C(=O)Nc2ccc(Cl)cc2)S1 (stereo not given)
Assay by compound	1	2	3	4	5	6
UUG fidelity	17	-1	nt	1	-8	nt
MT1-MMP act inh	2	-18	3	1	4	-2
MT1-MMP act inh RFP	0	-29	3	-2	8	0
HIV Env fusion	-4	68*	6	5	nt	nt
PABP FP inh	7	2	-4	-6	-6	-4
CSC inhib	-7	10	5	-5	nt	-13
eIF4H FP inh	-3	-3	6	10	-1	5
Rce1 inh	?	i	i	i	i	i

7. CC(=O)Nc1ccc(NC(=O)c2c([N+](=O)[O-])cnn2C)cc1
8. CCOC(=O)c1nnn2c1nc(N1CCOCC1)c1ccccc12
9. COC(=O)[C@@H](NC(=O)N(C1CCCCC1)C1CCCCC1)C(C)C
10. O=C(O)CSc1ccccn1
11. COc1ccc(CCN(C)C(=O)C2CCCN(Cc3ccc(OC)c(OC)c3)C2)cc1OC (stereo not given)
12. O=C(Nc1cccc(C(=O)N2CCOCC2)c1)c1cncc(Br)c1
Assay by compound	7	8	9	10	11	12
UUG fidelity	-17	2	nt	2	6	-22
MT1-MMP act inh	4	-4	3	2	2&-2	-2
MT1-MMP act inh RFP	4	-4	3	5	6&-4	-10
HIV Env fusion	-48	-5	2	nt	18	nt
PABP FP inh	-6	-8	-1	7	7&12	27
CSC inhib	-7	6	-1	nt	-4&-19	-3
eIF4H FP inh	0	-6	4	-3	0&-7	1
Rce1 inh	i	+	i	i	i	nt

13. O=C(CCN1C(=O)NC2(CCCC2)C1=O)Nc1ccc(Sc2ccc(Br)cc2)cc1
14. COC(=O)[C@]1(CC(C)C)N[C@H](c2ccc(-c3ccc(F)cc3)cc2)[C@@H]2C(=O)N(C)C(=O)[C@@H]21
15. Clc1ccc2nc(N3CCCCC3)[nH]c2c1
16. C[C@H](NC(=O)c1nc[nH]c1C(=O)N1CCN(C(=O)OC(C)(C)C)CC1)C(=O)OC(C)(C)C
17. CCc1ccc(CNC(=O)c2ccc3nc(C4CCCCC4)oc3c2)nc1
18. CC(=O)Nc1ccc(S(=O)(=O)N2CCC(C(=O)c3ccc(Cl)cc3)CC2)cc1
Assay by compound	13	14	15	16	17	18
UUG fidelity	-14	-5	-17	-14	-24	7
MT1-MMP act inh	4	0	3	2	0	3
MT1-MMP act inh RFP	0	-5	2	3	-3	-18
HIV Env fusion	38	-11	-166	-8	10	56*
PABP FP inh	nt	nt	-14	nt	3	13
CSC inhib	nt	18	nt	16	-4	17
eIF4H FP inh	nt	nt	-4	nt	5	-2
Rce1 inh	nt	i	i	nt	nt	i

19. CCOc1ccc(NC(=O)Cn2nc(-c3ccccc3Cl)n(CC)c2=S)cc1
20. CCSC(=O)NC1CCCCC1
21. O=C(COC(=O)Cc1cccc(C(F)(F)F)c1)NCC1CCCO1 (stereo not given)
22. CN(C)CCNc1oc(-c2ccccc2Cl)nc1S(=O)(=O)c1ccccc1
23. Cc1ccc(-c2nc(CCN3C(=O)c4ccccc4C3=O)cs2)cc1
24. Cc1ccccc1-c1nc2sc3c(c2c(=O)o1)CCC3
Assay by compound	19	20	21	22	23	24
UUG fidelity	-1	-11	24	-5	-5	-15
MT1-MMP act inh	1	0	-5	1	6	3
MT1-MMP act inh RFP	-10	0	3	3	0	4
HIV Env fusion	nt	-7	nt	nt	-36	nt
PABP FP inh	0	0	-2	nt	-8	-6
CSC inhib	-5	-10	-2	-3	16	4
eIF4H FP inh	4	-6	-4	nt	-3	-5
Rce1 inh	i	i	i	nt	i	i

25. COc1ccccc1N1CCN(S(=O)(=O)c2c(C)sc3ncn(CC(=O)NCCN(C)C)c(=O)c23)CC1
26. CC(C)NC(=O)C12CC3CC(C1)CC(n1cnc(Cl)n1)(C3)C2
27. O=C1CC(c2ccc(F)cc2)Sc2nc(-c3ccccc3)c(-c3ccccc3)n21 (stereo not given)
28. CCN(CC(=O)Nc1ccc(OC)cc1)C(=O)CCc1nc2ccccc2c(=O)[nH]1
29. Cc1cccc(C)c1NC(=O)c1c(-c2ccccc2)noc1C
30. Cc1ccc(SCC(=O)OCC(=O)NC2CCCCCC2)cc1
Assay by compound	25	26	27	28	29	30
UUG fidelity	-17	-15	nt	-20	0	-20
MT1-MMP act inh	-5	1	-3	1	5	-2
MT1-MMP act inh RFP	1	1	-4	3	4	2
HIV Env fusion	-1	-56	-12	10	nt	-13
PABP FP inh	5	-6	4	nt	-2	-6
CSC inhib	-10	2	19	6	10	nt
eIF4H FP inh	-3	-5	8	nt	-1	-2
Rce1 inh	i	i	i	nt	i	i

11 entries from above, with two lines to a compound.
Below each compound – UUG fidelity, MT1-MMP act inh, MT1-MMP act inh RFP, HIV Env fusion, PABP FP inh, CSC inhib, eIF4H FP inh, Rce1 inh
(17) CCc1ccc(CNC(=O)c2ccc3nc(C4CCCCC4)oc3c2)nc1
→ -24, 0, -3, 10, 3, -4, 5, nt
(18) CC(=O)Nc1ccc(S(=O)(=O)N2CCC(C(=O)c3ccc(Cl)cc3)CC2)cc1
→ 7, 3, -18, 56*, 13, 17, -2, i
(19) CCOc1ccc(NC(=O)Cn2nc(-c3ccccc3Cl)n(CC)c2=S)cc1
→ -1, 1, -10, nt, 0, -5, 4, i
(20) CCSC(=O)NC1CCCCC1
→ -11, 0, 0, -7, 0, -10, -6, i
(21) O=C(COC(=O)Cc1cccc(C(F)(F)F)c1)NCC1CCCO1 (stereo not given)
→ 24, -5, 3, nt, -2, -2, -4, i
(22) CN(C)CCNc1oc(-c2ccccc2Cl)nc1S(=O)(=O)c1ccccc1
→ -5, 1, 3, nt, nt, -3, nt, nt
(23) Cc1ccc(-c2nc(CCN3C(=O)c4ccccc4C3=O)cs2)cc1
→ -5, 6, 0, -36, -8, 16, -3, i
(24) Cc1ccccc1-c1nc2sc3c(c2c(=O)o1)CCC3
→ -15, 3, 4, nt, -6, 4, -5, i
(25) COc1ccccc1N1CCN(S(=O)(=O)c2c(C)sc3ncn(CC(=O)NCCN(C)C)c(=O)c23)CC1
→ -17, -5, 1, -1, 5, -10, -3, i
(26) CC(C)NC(=O)C12CC3CC(C1)CC(n1cnc(Cl)n1)(C3)C2
→ -15, 1, 1, -56, -6, 2, -5, i
(27) O=C1CC(c2ccc(F)cc2)Sc2nc(-c3ccccc3)c(-c3ccccc3)n21 (stereo not given)
→ nt, -3, -4, -12, 4, 19, 8, i

Carrying on:
31. CC1CCCN(C2(O)C(=O)Nc3ccc(Br)cc32)C1 (stereo not given)
32. CCCCc1cn(C[C@H]2CC[C@@H]([C@@H]3CC[C@H](Cn4cc(CCCC)nn4)O3)O2)nn1
33. Cn1c(SCC(=O)N2CCN(c3ccccc3)CC2)nnc1-c1ccncc1
34. CCCC(NC(=O)CCc1c(C)c2cc3c4c(oc3c(C)c2oc1=O)CCCC4)C(=O)O (stereo not given)
35. COc1ccc(NC(=O)CCN2CCN(c3ccc(F)cc3)CC2)cc1
36. Cc1cccc(CNC(=O)c2ccccc2N)c1
Assay by compound	31	32	33	34	35	36
UUG fidelity	nt	-15	-27	5	-12	-10
MT1-MMP act inh	-2	-1	-3	-2	4	8
MT1-MMP act inh RFP	2	-2	5	1	4	-2
HIV Env fusion	9	9	nt	26	-2	-18
PABP FP inh	12	15	4	10	-4	-11
CSC inhib	-4	-12	-16	-6	-7	nt
eIF4H FP inh	5	11	-4	-12	5	-3
Rce1 inh	i	i	i	i	i	i

37. CCN(CC)c1ccc(S(=O)(=O)N2CCCCC2)cc1NC(=O)C1CCC1
38. CN(C)c1ccc(-c2n[nH]c(=S)n2-c2ccccc2)cc1
39. C=CCOc1ccccc1CNn1nnnc1N
40. Cc1ccc(C)n1-n1c(C)nc2sc(-c3ccccc3)cc2c1=O
41. CNC(=O)NC(=O)C(OC(=O)CCNS(=O)(=O)c1ccccc1)c1ccccc1 (stereo not given)
42. O=C(CCC(=O)OCc1cccc(C(=O)Oc2ccccc2)c1)Nc1cccc2ccccc12
Assay by compound	37	38	39	40	41	42
UUG fidelity	-8	-18	-9	-22	-10	-7
MT1-MMP act inh	-7	2	2	-7	-2	-2
MT1-MMP act inh RFP	-4	-2	2	-17	2	0
HIV Env fusion	17	-12	-129	nt	6	-10
PABP FP inh	nt	0	3	3	8	9
CSC inhib	3	-5	-15	12	2	4
eIF4H FP inh	nt	-10	1	-2	2	-5
Rce1 inh	i	i	i	i	i	i

43. Cc1c(C(=O)N2CCCCC2)c(S(=O)(=O)NCc2ccc(N(C)C)cc2)c(C)n1C
44. CN(C)c1ccc(N=Nc2ccccc2C(=O)OCC(=O)NC2CCCC2)cc1
45. CCN=C1SC(CC(N)=O)C(=O)N1CC (stereo not given)
46. O=S(=O)(c1ccccc1)N1CCN(C2CCN(Cc3ccccc3)CC2)CC1
47. CC1(C)Cc2c(c(N3CCCCC3)[nH]c(=S)c2C#N)CS1
48. CCN(C(=O)COC(=O)C1CC1)c1c(N)n(Cc2ccccc2)c(=O)[nH]c1=O
Assay by compound	43	44	45	46	47	48
UUG fidelity	-5	nt	nt	-9	-11	-9
MT1-MMP act inh	0	3	5	-1	-3	5
MT1-MMP act inh RFP	2	4	1	1	0	1
HIV Env fusion	-2	nt	12	nt	nt	-11
PABP FP inh	7	-4	-8	-2	-3	nt
CSC inhib	-7	6	-4	59	nt	-13
eIF4H FP inh	6	-8	3	0	12	nt
Rce1 inh	i	i	i	i	i	nt

49. Cc1nc(C(N)=O)nc2ccccc12
50. O=C(OCc1ccco1)c1ccc(S(=O)(=O)N2CCCCC2)cc1
51. O=C(OC(C(=O)NCc1ccc2c(c1)OCO2)c1ccc(Cl)cc1)c1ccco1 (stereo not given)
52. O=S(=O)(c1ccc(OCC(O)CN2CCCC2)cc1)N1CCOCC1 (stereo not given)
53. CC(C)(C)c1ccc(-c2n[nH]c(=S)n2CC2CCCO2)cc1 (stereo not given)
54. CCOCCOC(NC(=O)c1ccccc1)(C(F)(F)F)C(F)(F)F
Assay by compound	49	50	51	52	53	54
UUG fidelity	-19	-4	-4	-2	-26	nt
MT1-MMP act inh	-2	-2	-5	4	-2	1
MT1-MMP act inh RFP	0	4	-1	6	0	5
HIV Env fusion	nt	nt	-121	2	0	10
PABP FP inh	12	4	-1	6	-2	2
CSC inhib	1	5	nt	-11	-10	-18
eIF4H FP inh	-2	45	5	6	4	-19
Rce1 inh	i	i	i	i	i	i

55. Cc1cccc(OCC(=O)Nc2nccs2)c1C
56. CCC1CCCCN1C(=O)COC(=O)c1cc(C)nc2ccccc12 (stereo not given)
57. COc1ccc(OC)c(C2C(C(C)=O)=C(O)C(=O)N2CCC(=O)O)c1 (stereo not given)
58. COc1ccc(CCNC(=O)CCNC(=O)c2ccccc2Cl)cc1
Assay by compound	55	56	57	58
UUG fidelity	-44	-3	-17	-10
MT1-MMP act inh	1	-2	-1	-1
MT1-MMP act inh RFP	-1	-8	2	-1
HIV Env fusion	-87	2	nt	7
PABP FP inh	-6	nt	15	-1
CSC inhib	9	-17	-10	nt
eIF4H FP inh	1	nt	-9	2
Rce1 inh	i	nt	i	i
